VACV mCherry inh – qHTS for Stage-Specific Inhibitors of Vaccinia Orthopoxvirus: mCherry Reporter Primary qHTS | 0.63% of 310,000 active | AID 720579, 2013 | Potency, µM (highest dose often 36.5 µM), inactives show at the highest dose activity change, negative = inhibition, most hits filed as inhibitors | Vaccinia virus mCherry reporter infection, fluorescence; about a quarter of the inactives have no number; active = well fitted inhibition curve with a large enough effect; inconclusive = small, poorly fitted or top-dose-only effect; inactive = no such curve, though single readings can be large or run the other way; tested in A549 cells; also: nearly all actives have a fitted effect of over 35% in size; inactives centre near -10
VACV Venus inh – qHTS for Stage-Specific Inhibitors of Vaccinia Orthopoxvirus: Venus Reporter Primary qHTS; AID 720580, 2013; 0.46% of 330,000 active; Potency, µM (top dose mostly 36.5 µM), for the others: at the top dose activity change, negative = inhibition, most hits filed as inhibitors; Vaccinia virus Venus reporter expression, fluorescence; active means well fitted inhibition curve with a large enough effect; inconclusive means small, poorly fitted or top-dose-only effect; inactive means no such curve, though single readings can be large or run the other way; tested in A549 cells; also: nearly all actives have a fitted effect of over 30% in size; inactives centre near -10
Active calls of the source: *; i = inactive; ? = inconclusive; / = no result given; [ ] = remark or other dose. % is scaled to controls: 0 for no effect and ±100 for the full control effect; potency is read from the fitted curve at half-maximal effect.

Compound	VACV mCherry inh	VACV Venus inh
Cc1ccc2c(Cl)cc(Cl)c(OCC(=O)N3CCCC3)c2n1	i	-8%
CCN(CC)c1ccc2cc(-c3nc(-c4ccccc4)no3)c(=O)oc2c1	-13%	-4%
S=c1[nH]nc(C2CCCCC2)n1/N=C/c1ccco1	-11%	-4%
O=C(CCn1cnc2ccccc21)N/N=C/C=C/c1ccccc1	i	-13%
Clc1ccc(CN2CCC(CNc3ncnc4onc(-c5ccc(Cl)cc5)c34)CC2)cc1	i	-10%
CCCCOC(=O)C(C#N)c1nc2ccccc2nc1N1CCN(Cc2ccc3c(c2)OCO3)CC1 (centres undefined)	/	0%
COc1ccccc1-c1sc2cc3c(cc2c1C#Cc1cncn1C)OCO3	?	?
COc1cc(CNC(=O)c2cc3n(n2)CCCN(Cc2cccc(F)c2)C3=O)cc(OC)c1OC	-9%	-7%
O=C(CCn1nnc2ccccc21)N1CCN(c2ccccc2)CC1	-9%	-1%
CC(C)OP(=O)(OC(C)C)C(Nc1ccccc1)c1ccccc1C(F)(F)F (centres undefined)	-5%	-16%
Cc1ccc(-n2nnnc2SCC(=O)NCC2(N3CCOCC3)CCCCC2)cc1	i	-18%
Cc1ccc(N(C)C(=O)n2cnc3ccccc32)cc1	-2%	-6%
COc1ccc(OC)c(NC(=S)N(CCc2c(C)[nH]c3ccccc23)Cc2cccs2)c1	?	-22%
O=C(CCc1nnc(CCCc2ccccc2)o1)NCCc1ccccc1	i	2%
CN1CCN(C(=O)c2ccccc2NC(=O)c2ccccc2Br)CC1	i	-8%
COc1ccc(C(=O)Nc2ccc3c(c2)nc(CN2CCCC2)n3C)cc1	-15%	-15%
C[C@@H]1CN([C@H](C)CO)C(=O)CCCn2nncc2CO[C@H]1CN(C)Cc1cccnc1	i	-8%
COc1ccccc1NC(=O)Nc1ccc(N2CCOCC2)cc1	-15%	-4%
Cc1ccn2cc(CNS(=O)(=O)c3ccc4ccccc4c3)nc2c1	-14%	-27%
Nc1cc(Nc2ccc(Br)cc2)nc(N)n1	?	-22%
CCOC(=O)Nc1nc(-c2ccc(F)cc2F)cs1	-18%	-5%
COc1ccc(C(C(=O)NC(C)(C)C)n2c(-c3ccc(-c4ccccc4)cc3)nc3ccccc32)cc1 (centres undefined)	-7%	-10%
Cc1ccc(OCC(=O)Nc2ccc(Cl)c(-c3nc4ncccc4o3)c2)c(C)c1	-7%	-5%
Cc1cc(C)cc(CC(=O)N2CCC2(C)C(=O)NS(=O)(=O)c2ccc(Cl)s2)c1 (centres undefined)	23%	1%
O=C(CCc1nc(-c2ccccn2)no1)NCc1ccc2c(c1)OCO2	-10%	12%
C=CCN1C(=O)CN=C1Nc1cc(C)cc(C)c1	-21%	-10%
Cc1ccc(C(=O)N2CCN(c3ccc([N+](=O)[O-])cc3-n3cccc3)CC2)cc1	-28%	-15%
Cc1cccc(CCNC(=O)C2CCCN(c3ncnc4c3nc3n4CCCCC3)C2)c1 (centres undefined)	-14%	-20%
COc1ccc(-c2coc(CCC(=O)N3CCN(c4cc(C)ccc4C)CC3)n2)cc1	-15%	-17%
O=C(COC(=O)c1ccco1)NCC1CCCO1 (centres undefined)	-4%	5%
COc1cc([C@H]2OC[C@H]3[C@@H]2CO[C@@H]3c2ccc(O[C@H]3O[C@H](CO)[C@@H](O)[C@H](O)[C@H]3O)c(OC)c2)ccc1O[C@@H]1O[C@H](CO)[C@@H](O)[C@H](O)[C@H]1O	i	0%
COc1ccc(C2/C=C\CN(S(=O)(=O)c3cccs3)CC(=O)N2Cc2ccc(F)cc2)cc1 (centres undefined)	-25%	-10%
c1ccc(-c2nc3cc4ccccc4cc3[nH]2)nc1	-18%	-28%
CCN(CC)C(=O)CSc1nc(O)c(Cc2ccccc2)c(=O)n1-c1ccccc1	-6%	8%
CC[C@]12c3[nH]c4ccc(OC)cc4c3CCN1C(=O)C(CC(=O)NCCCn1ccnc1)C[C@@H]2C(=O)N1CCN(C(=O)c2ccco2)CC1 (some centres undefined)	-17%	-7%
Cc1nnc(N(C)C(=O)c2ccccn2)s1	i	-19%
C=CCc1cc(OC)ccc1OCC(O)CN1CCN(c2ccc(OC)cc2)CC1 (centres undefined)	-29%	-15%
CCc1cc(=O)[nH]c(SCC(=O)Nc2cc(C)on2)n1	-17%	-1%
Fc1ccc(Nc2c3c(nc4nncn24)CCC3)cc1	-12%	-3%
Cc1cccc(C(=O)Nc2ccc(-c3nc4ccccc4s3)c(C)c2)c1	-11%	-19%
Cn1c2c(c(=O)n(C)c1=O)C(c1ccccc1Cl)CC(=O)N2 (centres undefined)	i	-8%
COc1ccc(/C=C2\CCn3c2nc2cc(C(=O)O)ccc2c3=O)cc1O	-10%	-11%
C=CCNc1nc(-c2cccs2)c(CC(=O)O)s1	?	5%
Oc1ccc(NCc2ccccc2OCc2ccc(Cl)cc2)cc1	2%[7.34 µM]	-9%[7.34 µM]
CCCCNC(c1ccccc1)c1ccncc1 (centres undefined)	i	-4%
Cc1ccc(-n2ccnc(NCc3ccccc3)c2=O)cc1C	-22%	-16%
Cc1ccc(N(C(=O)CCC(=O)Nc2nccs2)C(C(=O)NC(C)(C)C)c2ccc(O)cc2)cc1 (centres undefined)	i	-7%
CN(C)C(=O)CN(c1ccc2c(c1)OCO2)S(C)(=O)=O	-17%	-1%
COc1ccc(CCNC(=O)c2ccc(Nc3nc4ccccc4n4nnnc34)cc2)cc1OC	-29%	-21%
COc1ccccc1OCC(=O)Nc1ccc(S(=O)(=O)N2CCOCC2)cc1	-9%	-12%

Some of the entries so far, field by field.
SMILES: O=C(COC(=O)c1ccco1)NCC1CCCO1 (centres undefined)
  VACV mCherry inh: -4%	VACV Venus inh: 5%

SMILES: COc1cc([C@H]2OC[C@H]3[C@@H]2CO[C@@H]3c2ccc(O[C@H]3O[C@H](CO)[C@@H](O)[C@H](O)[C@H]3O)c(OC)c2)ccc1O[C@@H]1O[C@H](CO)[C@@H](O)[C@H](O)[C@H]1O
  VACV mCherry inh: i	VACV Venus inh: 0%

The listing continues.
Compound	VACV mCherry inh	VACV Venus inh
CN(C)CCCNc1nc2cc(-c3cnn(C)c3)sc2c(=O)n1C	-9%	-21%
C=CCC(CC=C)(NC(=O)c1ccccc1)c1ccccc1	i	-3%
CNc1nccc(-c2ccc(Cl)cc2)c1C#N	i	-20%
CCOC(=O)C1=C(C)N(c2ccccc2)C(=O)/C1=C\c1ccco1	i	-16%
S=C(NC1CCCC1)N1CCN(c2ccc(Cl)cc2)CC1	-12%	-10%
Cc1ccc(S(=O)(=O)c2c(C)cc(C)nc2Oc2cccc(C(F)(F)F)c2)cc1	/	-13%
Cc1ccc(C(O)c2ncc(-c3ccccc3Cl)[nH]2)cc1F (centres undefined)	14%	-6%
Cc1c(C(=O)NC(=S)NCc2cccnc2)oc2ccccc12	0%	-14%
CCc1nnc(NC(=O)c2ccc(S(=O)(=O)N(CC)Cc3ccccc3)cc2)o1	?	?
C(=C\c1ccco1)/C1=NN(c2ccccc2)C(c2ccco2)C1 (centres undefined)	-13%	20%
Cc1nc(-c2ccc(Cl)cc2)sc1C1(C)CC(c2ccccc2Br)=NO1 (centres undefined)	-5%	-10%
COc1ccc(NC(=O)c2cc(S(=O)(=O)N3CCCCC3)ccc2C)cc1S(=O)(=O)N1CCOCC1	i	-17%
COc1ccc(C(=O)n2nc(-c3ccco3)nc2NCc2cccs2)cc1OC	-19%	-17%
CC(NS(=O)(=O)c1c(N)n(C)c(=O)n(C)c1=O)c1ccccc1 (centres undefined)	-2%	0%
COCCN(CCOC)C(=O)COC(=O)c1ccc(Cl)c(S(=O)(=O)N(C)c2ccccc2)c1	-14%	-7%
C=CCn1c(Oc2ccccc2)nc2c1c(=O)n(C)c(=O)n2C	-11%	-9%
Cc1cc(C)cc(OCC(=O)Nc2cccc(-c3nc4ncccc4o3)c2)c1	-8%	-26%
Cc1csc(NC(=O)c2ccc(C)o2)n1	-7%	-18%
COc1ccc(C(=O)N[C@H](C(=O)NCc2ccccc2)C(C)C)cc1	-20%	2%
CC(=O)N1CCN(c2ccc(NC(=O)C(C)Oc3ccc(Cl)cc3Cl)cc2)CC1 (centres undefined)	-18%	-8%
COc1ccc(C(=O)O/N=C(\C)c2cnccn2)cc1	i	2%
Cc1[nH]c(C)c2c(=O)n(Cc3ccccc3Cl)ncc12	i	-5%
Cc1cc(=O)[nH]c(SCC(=O)NCCc2ccccc2)n1	-9%	-9%
Cc1ccccc1OCC(=O)NN1Cc2ccccc2C1=N	-3%	-14%
CCc1nc2c(OCc3cccc(OC)c3)cccn2c1N(C)C(=O)C(C)C	-5%	-16%
COc1ccc(OCCN2CCC(C(=O)NC(c3ccc(Cl)cc3)c3cccnc3)CC2)cc1 (centres undefined)	7%	-9%
Cc1cccc(CN2CCN(c3nc4nonc4nc3NC3CC3)CC2)c1	-10%	-2%
Cc1cc(C(=O)N/N=C/c2cccnc2)c(C)o1	/	-12%
NC(=O)CC(NC(=O)Cc1ccc(Br)cc1)c1ccc(NCCN2CCCCC2)c([N+](=O)[O-])c1 (centres undefined)	-12%	-9%
CC1CCN(c2[nH]c(=S)c(C#N)c3c2CCCC3)CC1	-14%	-2%
O=C(Cc1ccccc1)NCc1ccc2c(c1)OCO2	i	-16%
CC1Cc2nc(SCC(N)=O)n(C)c(=O)c2S1 (centres undefined)	-3%	-9%
CCOC(=O)C(CCCCOc1ccc([N+](=O)[O-])cc1)C(=O)OCC	i	-5%
Cc1nc(Nc2cccc(C(C)O)c2)c2nnn(Cc3ccc(F)cc3)c2n1 (centres undefined)	i	-16%
CCn1cc(C(=O)NCCCOC)c(=O)c2cc(S(=O)(=O)N(C)C)ccc21	-1%	4%
CC(C)N(Cc1ccccc1)C(=O)Cn1ncc2c3ccccc3n(Cc3ccccc3)c2c1=O	-15%	-17%
COc1ccc(S(=O)(=O)Nc2ccccn2)cc1C	i	-5%
Cc1c(Cl)cccc1NC(=O)CSc1nc2ncccc2o1	14%	-4%
O=C(N/N=C/c1ccc(Cl)cc1)C1CC12CCC2 (centres undefined)	-9%	-4%
CN(C)CC1CCC/C(=C\c2ccc(OC(=O)c3ccc(Cl)cc3)cc2)C1=O (centres undefined)	-21%	?
CC(C)n1nccc1NC(=O)Nc1ccccc1	0%	-12%
O=C(NCCc1ccccc1)c1ccc(CSc2nc3cccnc3n2Cc2ccccc2F)cc1	-9%	-2%
O=C(COC(=O)c1cccnc1Cl)Nc1ncc(Cl)cc1Cl	i	0%
O=C(O)C1CCN(S(=O)(=O)c2ccc3[nH]ccc3c2)CC1	i	-6%
C=Cc1ncc(OC)c2c1[nH]c1ccccc12	?	?
CCCN(/C=N/c1sc2c(c1C#N)CCCCC2)CCC	-24%	-21%
Cc1cccc(S(=O)(=O)N(C)C[C@H]2OCc3cn(nn3)CCCC(=O)N([C@H](C)CO)C[C@@H]2C)c1	-8%	-8%
CCCn1c(SCC(=O)N2CCCc3ccccc32)nnc1-c1ccco1	i	-11%
O=C(Nc1ccc2c(c1)C(=O)NC2=O)c1ccccc1	-4%	-13%
O=C(Nc1ccc2oc(-c3ccccc3F)nc2c1)c1ccccc1F	-14%	-27%

Reprinted at random: 6 compounds from above.
Compound	VACV mCherry inh	VACV Venus inh
O=C(COC(=O)c1cccnc1Cl)Nc1ncc(Cl)cc1Cl	i	0%
CN(C)CC1CCC/C(=C\c2ccc(OC(=O)c3ccc(Cl)cc3)cc2)C1=O (centres undefined)	-21%	?
O=C(NCCc1ccccc1)c1ccc(CSc2nc3cccnc3n2Cc2ccccc2F)cc1	-9%	-2%
CCOC(=O)C(CCCCOc1ccc([N+](=O)[O-])cc1)C(=O)OCC	i	-5%
CC(C)n1nccc1NC(=O)Nc1ccccc1	0%	-12%
CC1CCN(c2[nH]c(=S)c(C#N)c3c2CCCC3)CC1	-14%	-2%

Next section.
Compound	VACV mCherry inh	VACV Venus inh
Cc1c(CNC(=O)c2cnn3c2NC(c2ccccc2)CC3C(F)(F)F)cnn1C (centres undefined)	-18%	-10%
NS(=O)(=O)c1cccc(NC(=O)CCSc2ccccc2Cl)c1	-21%	-17%
CN(CC(=O)Nc1cccc(F)c1)C(=O)CCCNC(=O)c1ccc(Cl)cc1	5%	-4%
COc1ccc(C)cc1S(=O)(=O)N1CCCC(C(=O)N2CCOCC2)C1 (centres undefined)	-14%	-4%
O=C(CNC(=O)C1CCCCC1)OCC(=O)c1ccccc1	37%[activator]	4%
COc1cccc(CN(C(=O)/C=C/c2ccco2)C2CCS(=O)(=O)C2)c1 (centres undefined)	-13%	-6%
Cc1ccccc1/C=C/C(=O)N1CCOCC1	i	-4%
Cc1ccc(C(=O)NCCn2cc(SCC(=O)Nc3cc(C)on3)c3ccccc32)cc1	i	-23%
COc1cc(NC(=S)NCCCN2CCOCC2)cc(OC)c1	-2%	-8%

Assay outcomes: PubChem BioAssay, National Center for Advancing Translational Sciences (NCATS)
